Screening results (PubChem BioAssay)
2A StopGo: High Throughput Screening for Foot and Mouth Disease Virus Antivirals. Potency, µM (doses to about 57.9 µM), inactives show at the top dose signal change, negative = less light. actives 1.2% (n = 410,000). human cells with a luciferase reporter of 2A StopGo recoding; control for the full effect not named in the record; active = well fitted falling curve with a large enough effect; inconclusive = small, poorly fitted or top-dose-only effect; inactive = no such curve, though single readings can be large or run the other way; tested in HEK293T cells; further: on the % scale 0 is the no-effect control and ±100 the full control effect; nearly all actives have a fitted effect of over 45% in size; luciferase light after 4 h
Cruzain Triton: qHTS Assay for Promiscuous and Specific Inhibitors of Cruzain (with detergent). Cruzipain (Trypanosoma cruzi), P25779. purified cruzain, Z-FR-AMC fluorescence, 0.01% Triton. Potency, µM, for the others: max response, negative = inhibition, actives largely listed as inhibitors. actives 0.43% (n = 200,000). AID 1478, 2009; active means well fitted curve in the direction sought with a large enough effect; inconclusive means small, poorly fitted or top-dose-only effect, or another doubt; inactive means no such curve, though single readings can be large; an effect the other way counts as inactive or inconclusive;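 further: plate controls were neutral wells for no effect and buffer without enzyme for full effect; nearly all actives have a fitted effect of over 40% in size; top concentration of the series not given in the record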
Target sequence (P25779 123-467 limits assumed): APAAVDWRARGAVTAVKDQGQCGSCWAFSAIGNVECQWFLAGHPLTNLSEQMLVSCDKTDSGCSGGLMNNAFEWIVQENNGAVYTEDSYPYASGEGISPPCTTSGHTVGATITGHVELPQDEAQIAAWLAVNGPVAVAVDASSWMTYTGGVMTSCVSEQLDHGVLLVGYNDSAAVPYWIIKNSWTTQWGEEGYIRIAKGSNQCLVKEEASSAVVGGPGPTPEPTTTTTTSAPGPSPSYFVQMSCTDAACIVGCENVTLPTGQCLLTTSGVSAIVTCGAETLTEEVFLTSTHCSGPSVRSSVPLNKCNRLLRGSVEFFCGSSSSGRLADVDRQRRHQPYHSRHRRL
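Compounds were screened in titration against cruzain (1.5 nM) with 0.01% Triton X-100 to counter colloidal aggregation. Activity was the AMC fluorescence increase over 60 s after adding 2 uM Z-FR-AMC at pH 5.5.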
RE007 growth inh: qHTS Assay for Inhibitors of the HIV-1 protein Vpr. actives 0.21% (n = 360,000). AID 651644, 2012. Potency, µM (series often up to 92.2 µM), for inactives: top-dose activity change, negative = less growth. S. pombe RE007 Vpr strain, BacTiter-Glo ATP luminescence, 24 h; control for the full effect not named in the record; active = well fitted falling curve with a large enough effect; inconclusive = small, poorly fitted or top-dose-only effect; inactive = no such curve, though single readings can be large or run the other way;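 further: on the % scale 0 is the no-effect control and ±100 the full control effect; nearly all actives have a fitted effect of over 50% in size; the assay follows cell death caused by Vpr and the record does not say whether a fall means rescue or toxicity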
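Fission yeast strain RE007, carrying one chromosomally integrated HIV-1 vpr copy, was seeded at OD 0.01 in PMG+AL medium with 23 nL pinned compound. After 24 h at 30 °C and 99% humidity, viability was read by BacTiter-Glo luminescence.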
SARS PLpro yeast: qHTS of Yeast-based Assay for SARS-CoV PLP | Potency, µM (highest dose often 32.9 µM), for the others: top-dose activity, positive = growth rescue | actives 0.19% (n = 330,000) | S. cerevisiae expressing SARS-CoV PLpro, growth rescue; control for the full effect not named in the record; further: 0% is about no effect; nearly all actives have a fitted effect of over 55% in size; growth read by luminescence after 48 h
LASV entry inh: qHTS for Inhibitors of binding or entry into cells for Lassa Virus | Lassa virus pseudotype entry inhibition, cell reporter; control for the full effect not named in the record | Potency, µM (highest dose often 37.9 µM), inactives show top-dose activity change, negative = inhibition, hits mostly inhibitors | actives 1.2% (n = 300,000); active means well fitted inhibition curve with a large enough effect; inconclusive means small, poorly fitted or top-dose-only effect, or effect the other way; inactive means flat fitted curve, though single readings scatter; tested in HEK293 cells; further: on the % scale 0 is the no-effect control and ±100 the full control effect; nearly all actives have a fitted effect of over 50% in size; luciferase read-out
NS1 inh: qHTS Assay for Inhibitors of Influenza NS1 Protein Function; AID 2326, 2010; S. cerevisiae slowed by influenza A NS1, growth recovery by OD600; actives 0.4% (n = 270,000); Potency, µM (highest dose often 46.1 µM), inactives show at the highest dose activity, positive = more growth; further: actives are rising curves; nearly all actives have a fitted effect of over 50% in size
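Read-out: OD600 growth recovery of NS1-expressing budding yeast. Cells grown overnight at 30C in -URA glucose medium, washed, resuspended and diluted 1:100 in 2% galactose assay medium, pH 6.0. Same strain lacking NS1 served as positive control.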
Cruzain inh noDet: qHTS Assay for Promiscuous and Specific Inhibitors of Cruzain (without detergent) | Cruzipain (Trypanosoma cruzi), P25779 | Potency, µM, inactives show max response, negative = inhibition, hits mostly inhibitors | purified cruzain, Z-FR-AMC fluorescence, no detergent | actives 2.3% (n = 200,000); active means well fitted curve in the direction sought with a large enough effect; inconclusive means small, poorly fitted or top-dose-only effect, or another doubt; inactive means no such curve, though single readings can be large; an effect the other way counts as inactive or inconclusive;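 further: plate controls were enzyme without inhibitor for no effect and buffer without enzyme for full effect; nearly all actives have a fitted effect of over 40% in size; top concentration of the series not given in the record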
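Purified cruzain at 1.5 nM, pre-incubated 15 min with compound at room temperature in 100 mM sodium acetate pH 5.5, 5 mM DTT, 0.00005% Triton X-100. Reaction started with 2 uM Z-FR-AMC; AMC fluorescence increase over 60 s gives rate.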
MARV entry inh: qHTS for inhibitors of binding or entry into cells for Marburg Virus | Marburg virus pseudotyped entry inhibition, cell reporter; control for the full effect not named in the record; about a third of the inactives were read at about 46 µM | AID 540276, 2011 | actives 1.8% (n = 300,000) | Potency, µM (doses to about 37.8 µM), for the others: at the top dose activity change, negative = inhibition, most hits filed as inhibitors; active = well fitted inhibition curve with a large enough effect; inconclusive = small, poorly fitted or top-dose-only effect, or effect the other way; inactive = flat fitted curve, though single readings scatter; tested in HEK293 cells; about a fifth of its hits are not listed in these tables; further: on the % scale 0 is the no-effect control and ±100 the full control effect; luciferase read-out
* hit, by the source's call; ? = inconclusive; . = not tested or not shown; & = joins results of further samples; [ ] = remark or other dose. Unless noted, the call rests on the fitted dose curve; in most records, active means well fitted rising curve with a large enough effect; inconclusive means small, poorly fitted or top-dose-only effect; inactive means no such curve, though single readings can be large or run the other way. Potency means the concentration at half of the fitted maximal effect.

SMILES	2A StopGo	Cruzain Triton	RE007 growth inh	SARS PLpro yeast	LASV entry inh	NS1 inh	Cruzain inh noDet	MARV entry inh
CN(C)c1ccc(S(=O)(=O)NCC(=O)NCCOc2ccccc2F)cc1[N+](=O)[O-]	21.6%	.	1.5%	-2.3%	7.5%	.	.	-3.1%
CCOc1ccc(C(=O)CC(NCc2cccs2)C(=O)O)cc1 (stereo not drawn)	?	.	?	-0.7%	4.9%	-5.8%	.	-19.5%[14.2 µM]
Cc1ccc(C)c(C(=O)CSc2n[nH]c(C(C)C)n2)c1	-11.9%	-5.4%	22.1%	1.4%	-1.7%	-10.3%	-16.1%	-23.9%
Cc1cc2c(cc1S(=O)(=O)N1CCN(c3cccc(C(F)(F)F)c3)CC1)OCC(=O)N2	-25.1%	.	-9.9%	17.7%	.	6.0%	.	.
Cc1cc(C)c(NC(=O)c2cn3c4c(c(N5CCN(C)CC5)c(F)cc4c2=O)OCC3C)c(C)c1 (stereo not drawn)	-7.6%	-8.2%	-4.8%	-2.7%	5.1%	6.8%	9.4%	?
Cn1c(=O)n(Cc2ccc(Cl)cc2)c2ccccc21	.	2.6%	1.0%	-2.4%	1.4%	-54.0%	0.9%	6.5%
CC(=O)NS(=O)(=O)c1ccc(NC(=O)COc2cccc3c2OC(C)(C)C3)cc1	-8.8%	.	-13.8%	-0.3%	-1.7%	.	.	-3.3%
COc1cccc(CN2CCN(C(=O)C3CCC(=O)N(C4CCCC4)C3)CC2)c1 (stereo not drawn)	-3.3%	.	-2.7%	?	14.4%[46.1 µM]	15.8%	.	-11.7%[46.1 µM]
COc1cccc(C(=O)NC(=O)Nc2cc(C)[nH]n2)c1	3.8%	.	-15.2%	0.0%	-28.4%[46.1 µM]	-6.2%	.	?
O=C1C2C3C=CC(C4CC34)C2C(=O)N1Cc1ccccc1 (stereo not drawn)	-11.2%	.	-6.3%	-2.0%	0.9%	5.7%	.	12.5%[46.1 µM]
CCOc1ccc(NC(=O)COc2ccc(C(=O)NCc3cccnc3)cc2OC)cc1	0.0%	.	2.3%	-9.5%	-2.8%	.	.	-6.9%
COc1ccc(CCNC(=O)CCN2C(=O)[C@@H]3Cc4ccccc4CN3C2=O)cc1OC	?	.	6.2%	0.3%	.	5.8%	.	.
Cc1cccc(N2CCN(C(=O)C3CCC(CNS(=O)(=O)c4ccc(Br)s4)CC3)CC2)c1C (stereo not drawn)	?	-0.7%	.	.	11.6%[46.1 µM]	.	-7.8%	-13.8%[46.1 µM]
CC(CC(=O)OCC(=O)Nc1ccc2[nH]c(=O)[nH]c2c1)c1ccccc1 (stereo not drawn)	-22.3%	.	8.4%	-2.1%	6.7%	.	.	0.9%
CCn1c(CC(=O)Nc2ccc(C)cc2)nnc1SCC(=O)N1CCN(c2ccccc2)CC1	-16.5%	2.0%	4.7%	3.4%	15.4%	-5.0%	?	?
COCC(=O)N(C)c1nnc(-c2cnccn2)s1	24.6%	3.3%	-15.8%	3.9%	3.0%	5.6%	-5.5%	9.5%[46.1 µM]
Cc1cccc(NCc2ccc([N+](=O)[O-])s2)c1	?	.	-19.8%	-9.9%	-10.0%	12.2%	.	-4.8%
Cn1cccc1/C=N/NC(=O)c1cccc(OC(F)(F)C(F)F)c1	50.5%[activator]	-8.4%	-13.5%	-4.5%	-0.5%	6.7%	-8.4%	23.4%
CC(NC(=O)C(=O)NCC1CCCO1)c1ccccc1 (stereo not drawn)	1.2%	.	-3.6%	1.7%	5.8%	.	.	12.6%[46.1 µM]
Cn1c(=O)n(C)c2cc(NS(C)(=O)=O)ccc21	19.1%	0.7%	-7.3%	-1.5%	-1.3%	-17.1%	-0.2%	11.3%
COc1ccc(S(=O)(=O)CCC(=O)N2CCN(c3cccc(Cl)c3)CC2)cc1	?	.	0.1%	-12.0%	.	-11.3%	.	.
CCc1nc2cccnc2n1-c1ccc(CC(=O)Nc2ccccc2Cl)cc1	?	12.6µM*	.	.	-13.4%[46.1 µM]	.	1.2%	.
Cc1cc(Cl)cc(Br)c1OCCCN1C(=O)NC(C)(C)C1=O	-24.5%	-3.8%	-9.4%	-17.3%	0.9%	-70.1%	?	-3.3%
CNCc1ccccc1OCC(=O)Nc1ccccc1OC	34.8%[activator]	4.3%	-5.5%	-12.7%	?	-48.2%	-0.1%	4.3%
Fc1ccccc1N1CCN(c2nnc(C(F)(F)F)c3nnn(Cc4ccccc4)c23)CC1	0.0%	-0.3%	.	.	0.0%[46.1 µM]	.	13.6%	3.2%[46.1 µM]
O=c1[nH]c(Cn2nnc(-c3ccccc3)n2)nc2scc(-c3ccccc3)c12	?	0.2%	3.7%	-3.1%	7.3%	-9.0%	-24.3%	-22.9%
COc1ccc(N(C)C(=O)Cc2c(C(=O)O)n(C)c3ccccc23)cc1	-6.0%	.	12.2%	-0.2%	.	7.3%	.	.
Cc1cc(C)nc(NS(=O)(=O)c2ccc(NC(=S)NC(=O)C(C)C)cc2)n1	116.2%[activator]	-0.7%	-3.8%	4.4%	-1.9%	2.0%	-2.1%	3.1%[46.1 µM]
CN1C2C=C3C(C#N)=C(N)C(C#N)(C#N)[C@@H](c4cccc(F)c4)[C@@H]3C1CC2 (stereo partly drawn)	-14.2%	-7.3%	0.9%	1.9%	19.6%	10.7%	-10.3%	-19.4%[46.1 µM]
Cc1ccc(OCCNC(=O)c2cc(=O)[nH]c3ccccc23)cc1	10.8%	.	10.7%	1.8%	.	-3.0%	.	.

Next section
SMILES	2A StopGo	Cruzain Triton	RE007 growth inh	SARS PLpro yeast	LASV entry inh	NS1 inh	Cruzain inh noDet	MARV entry inh
CC(NCc1ccccc1Cl)C(=O)Nc1ccc(S(=O)(=O)N2CCCC2)cc1 (stereo not drawn)	18.9%	-1.3%	11.2%	16.6%	?	5.0%	-9.4%	-3.1%
CCCNC(=O)CCCN1C(=O)CCn2nc(-c3cccn3C)cc21	7.6%	-0.1%	.	.	14.8%[46.1 µM]	.	-13.4%	.
CCCCCCNC(=O)Cc1nc2nc(C)cc(C)n2n1	-15.6%	2.7%	1.4%	2.6%	-2.3%	-6.6%	2.6%	20.1%
Cc1ccc(S(=O)(=O)c2nnn3c2nc(N2CCN(c4ccccn4)CC2)c2ccccc23)cc1	12.8%	.	2.1%	7.4%	.	-9.2%	.	.
CCN1CCN(C(c2ccc(OC)cc2)c2c(O)cc(C)n(Cc3ccco3)c2=O)CC1 (stereo not drawn)	-20.7%	1.9%	.	.	-9.9%[46.1 µM]	.	?	.
O=C1/C(=C/c2ccc(F)cc2)CCC1C1CCCC1 (stereo not drawn)	46.4%[activator]	-4.1%	-1.1%	-5.6%	4.5%	-3.2%	-2.3%	?
CCCc1ccc(-c2ccc(C(=O)Oc3ccc(Br)cc3)cc2)nc1	-13.4%	7.2%	.	.	27.1%[46.1 µM]	.	-12.0%	.
CC(C)CC(=O)OCc1cc(=O)n2nc(C3CCCCC3)sc2n1	39.4%[activator]	-2.7%	.	.	2.2%[46.1 µM]	.	6.8%	.
CC(C(=O)N1CCCCC1)n1sc2ccccc2c1=O (stereo not drawn)	72.2%[activator]	-1.2%	-5.8%	-26.4%	?	-0.1%	-0.2%	24.9%
COc1ccc(S(=O)(=O)NCCC(=O)OCc2cc(=O)oc3cc(C)ccc23)cc1[N+](=O)[O-]	0.7%	.	-3.1%	1.0%	-1.2%[46.1 µM]	.	.	-0.9%
Cc1cc(=O)n2nc(-c3ccccc3)sc2c1C#N	38.1%[activator]	-1.8%	0.9%	-3.7%	9.1%	-7.2%	-5.1%	1.1%
C=CCn1c(SCc2cc(C(C)=O)ccc2OCC)nc2ccccc2c1=O	?	14.1µM*	5.0%	-6.7%	?	24.3%	?	?
Cc1ccc(NC(=O)NNC(=O)CN2C(=O)COc3ccccc32)cc1	13.2%	.	-10.5%	-0.4%	.	6.4%	.	-10.4%[46.1 µM]
CN(C)S(=O)(=O)c1ccc(/C(O)=C2/C(=O)C(=O)N(Cc3cccnc3)C2c2ccco2)cc1 (stereo not drawn)	-18.1%	-3.8%	4.9%	-0.6%	26.6%	-1.6%	-6.3%	15.2%&15.2%
Cc1ccc(C)c(CSc2nc3ccncc3n2Cc2nc(-c3ccccc3Cl)oc2C)c1	-20.4%	-6.4%	.	.	-4.5%[46.1 µM]	.	-8.1%	-29.6%[46.1 µM]
CC1CC(NC(=O)c2ncn[nH]2)CC(C)(C)C1 (stereo not drawn)	.	5.3%	2.9%	-11.0%	2.3%	?	2.4%	-9.9%
CCn1cc(C(=O)NCCc2ccc(Cl)cc2)c(=O)c2cc(S(=O)(=O)N3CCc4ccccc4C3)ccc21	-11.6%	-3.5%	.	.	-4.4%[46.1 µM]	.	-2.5%	1.5%[46.1 µM]
O=C(NC1CCSc2ccccc21)c1cccc(Br)c1 (stereo not drawn)	25.9%	.	-1.6%	2.1%	.	4.0%	.	.
CCc1nc(N)nc(N)c1-c1ccc(Cl)c(N=[N+]=[N-])c1	?	.	7.1%&-4.4%	.	?	.	.	?
O=C(C(=S)N1CCOCC1)c1c[nH]c2ccccc12	1.1%	.	-8.4%	1.1%	4.0%	-3.3%	.	?
Cn1c(=O)c2c(nc(N3CCN(c4ccccn4)CC3)n2Cc2ccccc2Cl)n(C)c1=O	6.6%	-4.4%	10.4%	1.4%	20.6µM*	0.5%	?	?
CCCOP(=O)(c1ccc(N(C)C)cc1)C(O)c1ccccc1OC (stereo not drawn)	19.9%	-0.5%	-1.9%	3.9%	-0.4%	-0.2%	14.7%	-3.3%
